# High-throughput results from PubChem.
# NS1 function inh – qHTS Assay for Inhibitors of Influenza NS1 Protein Function; 270,000 compounds, 0.4% hits; S. cerevisiae slowed by influenza A NS1, growth recovery by OD600; AID 2326, 2010; Potency, µM (top dose mostly 46.1 µM), for the others: at the highest dose activity, positive = more growth; active means well fitted rising curve with a large enough effect; inconclusive means small, poorly fitted or top-dose-only effect; inactive means no such curve, though single readings can be large or run the other way; further: nearly all actives have a fitted effect of over 50% in size
#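 Growth recovery, yeast-based: influenza A NS1 expressed in S. cerevisiae causes slow growth, and suppressors are detected by OD600. The parent strain without NS1 is used as positive control.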
# Lassa entry inh – qHTS for Inhibitors of binding or entry into cells for Lassa Virus. Lassa virus pseudotype entry inhibition, cell reporter; control for the full effect not named in the record. Potency, µM (top dose mostly 37.9 µM), without a hit: at the top dose activity change, negative = inhibition, actives largely listed as inhibitors. 300,000 compounds, 1.2% hits; active means well fitted inhibition curve with a large enough effect; inconclusive means small, poorly fitted or top-dose-only effect, or effect the other way; inactive means flat fitted curve, though single readings scatter; tested in HEK293 cells; further: on the % scale 0 is the no-effect control and ±100 the full control effect; nearly all actives have a fitted effect of over 50% in size; luciferase read-out
# RE007 growth inh – qHTS Assay for Inhibitors of the HIV-1 protein Vpr; S. pombe RE007 Vpr strain, BacTiter-Glo ATP luminescence, 24 h; control for the full effect not named in the record; 360,000 compounds, 0.21% hits; AID 651644, 2012; Potency, µM (titrated, usually from 92.2 µM), for inactives: at the top dose activity change, negative = less growth; active = well fitted falling curve with a large enough effect; inconclusive = small, poorly fitted or top-dose-only effect; inactive = no such curve, though single readings can be large or run the other way;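 further: on the % scale 0 is the no-effect control and ±100 the full control effect; nearly all actives have a fitted effect of over 50% in size; the assay follows cell death caused by Vpr and the record does not say whether a fall means rescue or toxicity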
#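 Fission yeast strain RE007, carrying one chromosomally integrated HIV-1 vpr copy, was seeded at OD 0.01 in PMG+AL medium with 23 nL pinned compound. After 24 h at 30 °C and 99% humidity, viability was read by BacTiter-Glo luminescence.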
# Marburg entry inh – qHTS for inhibitors of binding or entry into cells for Marburg Virus; Marburg virus pseudotyped entry inhibition, cell reporter; control for the full effect not named in the record; about a third of the inactives were read at about 46 µM; Potency, µM (series often up to 37.8 µM), for inactives: at the highest dose activity change, negative = inhibition, actives largely listed as inhibitors; 300,000 compounds, 1.8% hits; AID 540276, 2011; active = well fitted inhibition curve with a large enough effect; inconclusive = small, poorly fitted or top-dose-only effect, or effect the other way; inactive = flat fitted curve, though single readings scatter; tested in HEK293 cells; about a fifth of its hits are not listed in these tables; further: on the % scale 0 is the no-effect control and ±100 the full control effect; luciferase read-out
# SARS PLP yeast – qHTS of Yeast-based Assay for SARS-CoV PLP; S. cerevisiae expressing SARS-CoV PLpro, growth rescue; control for the full effect not named in the record; Potency, µM (highest dose often 32.9 µM), for inactives: at the highest dose activity, positive = growth rescue; 330,000 compounds, 0.19% hits; active means well fitted rising curve with a large enough effect; inconclusive means small, poorly fitted or top-dose-only effect; inactive means no such curve, though single readings can be large or run the other way; further: 0% is about no effect; nearly all actives have a fitted effect of over 55% in size; growth read by luminescence after 48 h
# 2A StopGo – High Throughput Screening for Foot and Mouth Disease Virus Antivirals; Potency, µM (doses to about 57.9 µM), for the others: at the highest dose signal change, negative = less light; AID 1159524, 2015; 410,000 compounds, 1.2% hits; human cells with a luciferase reporter of 2A StopGo recoding; control for the full effect not named in the record; active = well fitted falling curve with a large enough effect; inconclusive = small, poorly fitted or top-dose-only effect; inactive = no such curve, though single readings can be large or run the other way; tested in HEK293T cells; further: on the % scale 0 is the no-effect control and ±100 the full control effect; nearly all actives have a fitted effect of over 45% in size; luciferase light after 4 h
# Cruzain inh Det – qHTS Assay for Promiscuous and Specific Inhibitors of Cruzain (with detergent) | purified cruzain, Z-FR-AMC fluorescence, 0.01% Triton | Potency, µM, inactives show max response, negative = inhibition, usual class: inhibitors | 200,000 compounds, 0.43% hits;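 further: plate controls were neutral wells for no effect and buffer without enzyme for full effect; nearly all actives have a fitted effect of over 40% in size; top concentration of the series not given in the record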
# Target sequence (P25779 123-467 limits assumed): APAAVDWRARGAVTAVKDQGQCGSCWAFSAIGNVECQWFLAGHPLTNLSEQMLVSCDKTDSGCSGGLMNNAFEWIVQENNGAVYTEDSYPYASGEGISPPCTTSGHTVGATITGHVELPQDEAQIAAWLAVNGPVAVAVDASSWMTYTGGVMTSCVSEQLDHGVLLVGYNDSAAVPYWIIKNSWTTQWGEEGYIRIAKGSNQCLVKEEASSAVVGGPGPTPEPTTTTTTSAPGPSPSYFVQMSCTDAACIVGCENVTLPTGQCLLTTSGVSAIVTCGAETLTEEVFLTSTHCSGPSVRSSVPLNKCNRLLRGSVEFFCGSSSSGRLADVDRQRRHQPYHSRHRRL
#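 15 min RT preincubation of 1.5 nM cruzain with compound, then 2 uM Z-FR-AMC added; kinetic AMC fluorescence, 60 s delta. Triton X-100 0.01%, pH 5.5.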
# Cruzain noTriton – qHTS Assay for Promiscuous and Specific Inhibitors of Cruzain (without detergent); Cruzipain (Trypanosoma cruzi), P25779; Potency, µM, for the others: max response, negative = inhibition, actives largely listed as inhibitors; 200,000 compounds, 2.3% hits; purified cruzain, Z-FR-AMC fluorescence, no detergent; AID 1476, 2009;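 further: plate controls were enzyme without inhibitor for no effect and buffer without enzyme for full effect; nearly all actives have a fitted effect of over 40% in size; top concentration of the series not given in the record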
#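 Detergent-free condition (0.00005% Triton X-100) in acetate buffer pH 5.5 with DTT. 1.5 nM enzyme and compound were pre-mixed 15 min, then 2 uM Z-FR-AMC substrate added; reaction progress from fluorescence change between first and third reads (60 s).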
# Numbers without * were called inactive; ? = inconclusive; . = not tested or not shown; & = joins results of further samples; [ ] = dose if it differs, or a comment. Unless noted, the call rests on the fitted dose curve; in most records, active means well fitted curve in the direction sought with a large enough effect; inconclusive means small, poorly fitted or top-dose-only effect, or another doubt; inactive means no such curve, though single readings can be large; an effect the other way counts as inactive or inconclusive. Potency means the concentration at half of the fitted maximal effect.
mol	NS1 function inh	SARS PLP yeast	Cruzain inh Det	RE007 growth inh	Marburg entry inh	Lassa entry inh	Cruzain noTriton	2A StopGo
COc1ccccc1C(=O)NCc1ccc(-c2nc3ccccc3s2)cc1	1%	17%	-3.3%	-24%	-11%	-25%	23%	?
O=C(Cn1nc(-c2ccccc2)oc1=O)OCC(=O)c1ccc(F)c(F)c1	.	1%	.	-3%	?	-4%	.	-11%
O=C(Nc1ccc(-c2nc3ccccc3o2)c(O)c1)c1ccccc1	.	.	2.5%	.	.	-24%[46.1 µM]	-7%	40%[activator]
COc1ccc(-c2nc3ccc(NS(=O)(=O)c4ccc(C)cc4)cc3o2)cc1	.	.	-5.6%	.	-27%[46.1 µM]	-9%[46.1 µM]	-10%	6%
COc1cc(OC)cc(C(=O)N(CCCN2C(=O)c3cccc4cccc(c34)C2=O)c2cccc(OC)c2)c1	?	11%	-6.5%	9%	5%	5%	4%	-12%
O=C(NCCN1CCOCC1)C1CC(=O)N(c2cccc(C(F)(F)F)c2)C1 (stereo not drawn)	.	3%	.	-3%	?	-12%	.	-6%
O=C(NN1C(=O)c2ccccc2C1=O)C1CCCCC1	-7%	0%	-0.8%	4%	14%	1%	-1%	-22%
CC(C)(C)OC(=O)[C@H](Cc1ccccc1)NC(=O)c1nc[nH]c1C(=O)N[C@@H](Cc1ccccc1)C(=O)OC(C)(C)C	10%	-5%	.	7%	.	.	.	?
O=c1[nH]sc2cc(F)ccc12	.	-21%	.	?	?	-25%	.	-16%
Cc1ccc(CN(Cc2ccco2)C(=O)c2ccc(Cl)cc2)o1	.	.	-6.6%	.	-26%[46.1 µM]	3%[46.1 µM]	-4%	-2%
COc1ccccc1Nc1ccc(C(=O)NC2CCCCC2)cn1	-10%	-5%	-7.9%	-10%	10%	10%	-5%	.
O=c1c2ccccc2nc(SCc2ccncc2)n1CC1CCCO1 (stereo not drawn)	.	-2%	.	-13%	-25%[46.1 µM]	-6%	.	13%
COc1ccc(Nc2nc(N3CCOCC3)nc(N3CCOCC3)n2)cc1	6%	-3%	.	6%	.	.	.	-22%
COC(=O)C(C)n1cnc2c(nnn2-c2ccc(C)cc2)c1=O (stereo not drawn)	-1%	-5%	.	20%	.	.	.	27%
CCOC(=O)N1CCN(Cc2nc3cc(NC(=O)c4cccs4)ccc3n2CC)CC1	-12%	-1%	.	2%	.	.	.	-10%
CCCn1c(CN2CCN(c3cccc(Cl)c3)CC2)nc2c1c(=O)n(C)c(=O)n2C	-2%	17%	-20%	7%	.	.	?	?
O=C(COC(=O)c1cc(S(=O)(=O)N2CCCC2)ccc1O)Nc1ccc(F)cc1F	.	-2%	.	2%	23%	14%	.	-2%
O=C(CSc1nc2ccccc2c(=O)n1CC1CCCO1)Nc1ccccc1 (stereo not drawn)	-13%	0%	.	-5%	-6%[46.1 µM]	10%[46.1 µM]	.	2%
Cn1c(SCC(=O)NCc2cccs2)nnc1-c1ccncc1	3%	10%	0.2%	-9%	-2%	6%	2%	-1%
CN(C(=O)c1ccc(Br)o1)C1(C)CCS(=O)(=O)C1 (stereo not drawn)	-9%	-4%	.	-3%	.	.	.	-4%
CC1(C(=O)OCC(=O)NNC(=O)COc2ccc(Cl)cc2)CC1(Cl)Cl (stereo not drawn)	.	-1%	.	11%	14%	8%	.	-9%
CC1=C(c2ccc(Cl)cc2)S(=O)(=O)N=C1N1CCN(c2cccc(C)c2)C(C)C1 (stereo not drawn)	.	.	-12%	.	-9%[46.1 µM]	-28%[46.1 µM]	29%	?
Cc1cc(C(=O)COC(=O)c2ccc[nH]c2=O)c(C)n1-c1ccccc1	-9%	-28%	-2.2%	.	?	?	-9%	?
COc1ccc(/C=C/C(=O)c2ccc3c(c2)OCCO3)cc1[N+](=O)[O-]	-2%	9%	-6.0%	-7%	?	-6%	1%	?

# An excerpt of these results, with two lines to a compound.
# Every second line gives: NS1 function inh, SARS PLP yeast, Cruzain inh Det, RE007 growth inh, Marburg entry inh, Lassa entry inh, Cruzain noTriton, 2A StopGo
> Cc1ccc(CN(Cc2ccco2)C(=O)c2ccc(Cl)cc2)o1
→ ., ., -6.6%, ., -26%[46.1 µM], 3%[46.1 µM], -4%, -2%
> COc1ccccc1Nc1ccc(C(=O)NC2CCCCC2)cn1
→ -10%, -5%, -7.9%, -10%, 10%, 10%, -5%, .
> O=c1c2ccccc2nc(SCc2ccncc2)n1CC1CCCO1 (stereo not drawn)
→ ., -2%, ., -13%, -25%[46.1 µM], -6%, ., 13%
> COc1ccc(Nc2nc(N3CCOCC3)nc(N3CCOCC3)n2)cc1
→ 6%, -3%, ., 6%, ., ., ., -22%
> COC(=O)C(C)n1cnc2c(nnn2-c2ccc(C)cc2)c1=O (stereo not drawn)
→ -1%, -5%, ., 20%, ., ., ., 27%
> CCOC(=O)N1CCN(Cc2nc3cc(NC(=O)c4cccs4)ccc3n2CC)CC1
→ -12%, -1%, ., 2%, ., ., ., -10%
> CCCn1c(CN2CCN(c3cccc(Cl)c3)CC2)nc2c1c(=O)n(C)c(=O)n2C
→ -2%, 17%, -20%, 7%, ., ., ?, ?
> O=C(COC(=O)c1cc(S(=O)(=O)N2CCCC2)ccc1O)Nc1ccc(F)cc1F
→ ., -2%, ., 2%, 23%, 14%, ., -2%
> O=C(CSc1nc2ccccc2c(=O)n1CC1CCCO1)Nc1ccccc1 (stereo not drawn)
→ -13%, 0%, ., -5%, -6%[46.1 µM], 10%[46.1 µM], ., 2%
> Cn1c(SCC(=O)NCc2cccs2)nnc1-c1ccncc1
→ 3%, 10%, 0.2%, -9%, -2%, 6%, 2%, -1%
> CN(C(=O)c1ccc(Br)o1)C1(C)CCS(=O)(=O)C1 (stereo not drawn)
→ -9%, -4%, ., -3%, ., ., ., -4%
> CC1(C(=O)OCC(=O)NNC(=O)COc2ccc(Cl)cc2)CC1(Cl)Cl (stereo not drawn)
→ ., -1%, ., 11%, 14%, 8%, ., -9%

# Next section.
mol	NS1 function inh	SARS PLP yeast	Cruzain inh Det	RE007 growth inh	Marburg entry inh	Lassa entry inh	Cruzain noTriton	2A StopGo
CCOC(=O)c1c(C)nn(-c2ncccc2NC(=O)CCC(=O)O)c1C	5%	-1%	.	2%	?	0%	.	1%
Cc1ccc2cccc(O)c2[n+]1[O-]	-8%	2%	2.1%	5%	-1%	-9%	-6%	2%
CCCCCn1c(CN2CCN(c3cccc(Cl)c3)CC2)nc2c1c(=O)n(C)c(=O)n2C	-56%	8%	-21%	32%	?	7%	?	.
Cc1ccc(N2CC(C(=O)Nc3ccc(S(=O)(=O)N4CCOCC4)cc3)CC2=O)cc1 (stereo not drawn)	-16%	3%	-7.3%	-8%	2%	-1%	-10%	2%
Cc1[nH]nc(-c2cccnc2)c1N=NN(C)C	.	.	.	1%	7.1µM*	?	.	?
C=CCN1C(=O)c2ccc(C(=O)N3CCC(C(=O)OCC)CC3)cc2C1=O	.	-2%	.	3%	16%	13%	.	4%
C#CCN1c2ccccc2Sc2cccnc21	-2%	-2%	.	-7%	20%[46.1 µM]	13%	.	2%
CCOc1ccccc1N1CC(C(=O)NNC(=O)c2cc(OC)c(OC)c(OC)c2)CC1=O (stereo not drawn)	.	2%	.	12%	?	?	.	-21%
CCOc1ccccc1N(CC(=O)NCC1CCCO1)C(=O)CNS(=O)(=O)c1ccccc1 (stereo not drawn)	-1%	-1%	.	-16%	-4%[46.1 µM]	5%	.	4%
Nc1nnc(-c2ccccc2)s1	-8%	-5%	-1.1%	6%	10%	14%	-3%	14%
O=C1CCCN1CCCNc1ccc(S(=O)(=O)N2CCCCC2)cn1	0%	3%	1.9%	0%	-1%	8%	9%	58%[activator]
COC(=O)C1=C(O)/C(=C\c2ccc(CNS(=O)(=O)c3ccccc3)o2)N=C1C	5%	0%	-6.9%	18%	-1%	6%	-4%	0%
Cc1ccc2c(c1)cc(C(=O)NCc1ccccc1)n2C	-10%	4%	.	9%	0.63µM*	?	.	8%
Cc1ccc(C(=O)NC2CCCCNC2=O)cc1 (stereo not drawn)	-2%	2%	.	-9%	.	.	.	67%[activator]
O=C(CSc1nnc(-c2cccnc2)n1CCc1ccccc1)N1CCCCC1	0%	0%	0.3%	8%	?	8%	-6%	-15%
COCCc1nn2c(=O)cc(COC(=O)COc3ccccc3C)nc2s1	.	.	-1.0%	.	.	1%[46.1 µM]	3%	-8%
O=C(COc1ccc(Br)cc1)Nc1ccc(-c2nnc(-c3ccco3)o2)cc1	-13%	4%	4.9%	-3%	?	14%	10µM*	19%
CC(=O)Nc1cccc(NC(=O)CCCC(=O)O)c1	3%	-3%	2.7%	-12%	6%	25%	-2%	9%
CC12CCC(C/C1=N/O)C2(C)CBr (stereo not drawn)	-2%	0%	.	-6%	.	.	.	-9%
CCOC(=O)CNC(=O)c1sc2ncnc(N3CCc4ccccc4C3)c2c1C	-32%	-42%	-10%	?	?	?	22%	?
CC(C)c1nc2c(c(=O)c3ccccc3n2C)c(=O)n1-c1ccc(F)cc1	6%	2%	-1.6%	4%	-1%	10%	2%	0%
CCOc1ccc(-c2nc3ccccc3c(=O)o2)cc1	-4%	-2%	-2.7%	-8%	?	?	-6%	18%&12%
C=CCn1c(=O)c2ccccc2n2c(SCc3nc4ccccc4s3)nnc12	-9%	15%	1.9%	-3%	13%	27%	?	19%
CCOC(=O)c1cccc(NC(=O)N2Cc3ccccc3Oc3ncccc32)c1	.	.	-7.9%	.	?	-30%[46.1 µM]	6%	-20%
